HIV Env fusion: blocks HIV Env-driven cell-cell fusion; inhibition, % at 12.3 µM; 360,000 compounds, 1.1% hits; HeLa-JRFL Env/CEM21 cell fusion, luciferase;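 active means mean replicate inhibition score of at least 50 and every replicate individually at or above 50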;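 further: 0% = plate neutral controls and 100% = maraviroc near 300 nM; one replicate is shown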
Yeast UUG start: yeast start codon fidelity modulation | S. cerevisiae UUG-firefly luciferase reporter, luminescence/redox ratio | activity score, % at 18.7 µM | 350,000 compounds, 0.13% hits | AID 602363;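 active means replicate mean at a twofold rise or more, about +100% in these data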;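 further: firefly luciferase made from a UUG start codon reports start codon fidelity; reporter light over untreated wells divided by growth signal over untreated wells; some hits fall short of that in this replicate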
The depositor's hits bear a star; [ ] = remark or other dose. An excerpt, so the mix of outcomes need not match the whole.

HIV Env fusion	Yeast UUG start	SMILES
-26[16.7 µM]	11	C[C@H]1CCCCO[C@@H](CN(C)C(=O)Nc2ccc3c(c2)OCO3)[C@@H](C)CN([C@@H](C)CO)C(=O)c2cc(NS(=O)(=O)c3ccccc3)ccc2O1
13[16.7 µM]	-5	CC(C)NC(=O)N(C)C[C@@H]1Oc2ccc(NC(=O)Cn3cnnn3)cc2CC(=O)N([C@H](C)CO)C[C@H]1C
-65[16.7 µM]	7	C[C@@H]1CN([C@@H](C)CO)C(=O)c2cc(NC(=O)C3CCCCC3)ccc2O[C@@H](C)CCCCO[C@@H]1CN(C)Cc1ccc2c(c1)OCO2
-1[16.7 µM]	-8	O=C(N[C@@H]1CC[C@H](CCNS(=O)(=O)c2ccc(Cl)cc2)O[C@@H]1CO)c1cccnc1
4[16.7 µM]	-7	C[C@@H]1CN([C@@H](C)CO)C(=O)Cc2cc(NS(C)(=O)=O)ccc2O[C@H]1CN(C)C(=O)Nc1ccc2c(c1)OCO2
8[16.7 µM]	-3	C[C@H]1CN([C@@H](C)CO)C(=O)c2cc(C#CCN(C)C)cnc2O[C@H]1CN(C)Cc1ccccc1F
8[16.7 µM]	6	CCNC(=O)C[C@@H]1CC[C@@H]2[C@H](COc3ccc(NS(C)(=O)=O)cc3C(=O)N2C)O1
4[16.7 µM]	-17	C[C@@H]1CN([C@@H](C)CO)C(=O)c2cc(NC(=O)CCC(F)(F)F)ccc2O[C@H]1CN(C)Cc1ccncc1
-52[16.7 µM]	-2	C[C@@H]1CCCCO[C@H](CN(C)C(=O)c2ccccc2)[C@H](C)CN([C@@H](C)CO)C(=O)c2cc(N(C)C)ccc2O1
7[16.7 µM]	-14	COCC(=O)N(C)C[C@H]1Oc2ncc(C#Cc3cccnc3)cc2C(=O)N([C@H](C)CO)C[C@H]1C
-8[16.7 µM]	17	COc1ccc(NC(=O)N(C)C[C@@H]2Oc3c(NC(=O)Nc4ccc(F)cc4)cccc3C(=O)N([C@H](C)CO)C[C@H]2C)cc1
6[16.7 µM]	3	C[C@@H]1CCCCO[C@H](CN(C)S(C)(=O)=O)[C@@H](C)CN([C@H](C)CO)C(=O)c2cc(NS(=O)(=O)c3cccs3)ccc2O1
-9[16.7 µM]	-14	COCc1cn(CC[C@H]2CC[C@H](NC(=O)Nc3ccccc3)[C@H](CO)O2)nn1
1[16.7 µM]	-2	O=C(C[C@H]1CC[C@@H]2[C@H](COC[C@H](O)CN2C(=O)c2cccnc2)O1)NCc1ccc(Cl)cc1
-83[16.7 µM]	0	C[C@@H]1CN([C@H](C)CO)C(=O)c2cccc(NC(=O)Nc3ccc(C(F)(F)F)cc3)c2O[C@@H]1CN(C)Cc1ccc(C(F)(F)F)cc1
6[16.7 µM]	0	CC(=O)N(C)C[C@H]1Oc2ncc(/C=C/c3ccccc3)cc2C(=O)N([C@@H](C)CO)C[C@@H]1C
15[16.7 µM]	-9	C[C@H](CO)N1C[C@H](C)[C@@H](CN(C)C(=O)C2CCC2)Oc2cc(C3=CCCC3)ccc2S1(=O)=O
-16[16.7 µM]	0	COCC#Cc1cnc2c(c1)C(=O)N([C@@H](C)CO)C[C@@H](C)[C@@H](CN(C)S(=O)(=O)c1cn(C)cn1)O2
3[16.7 µM]	1	Cc1noc(C)c1NC(=O)Nc1cccc2c1O[C@H](CN(C)S(=O)(=O)c1ccc(Cl)cc1)[C@H](C)CN([C@@H](C)CO)C2=O
0[16.7 µM]	-8	C[C@@H]1CN([C@@H](C)CO)C(=O)c2cccc(NS(C)(=O)=O)c2O[C@H]1CN(C)C
1[16.7 µM]	-13	C[C@H](CO)N1C[C@H](C)[C@@H](CN(C)Cc2ccccn2)Oc2cc(-c3ccncc3)ccc2S1(=O)=O
16[16.7 µM]	-26	C[C@H]1CN([C@@H](C)CO)C(=O)c2cc(-c3ccccc3F)cnc2O[C@@H]1CN(C)C(=O)CN(C)C
21[16.7 µM]	1	O=C(O)C[C@H]1C[C@@H]2c3cc(NC(=O)NC4CCCCC4)ccc3O[C@@H]2[C@H](CO)O1
-15[16.7 µM]	0	CC(=O)Nc1ccc2c(c1)C(=O)N(C)[C@@H]1CC[C@H](CC(=O)NCc3ccccc3)O[C@H]1CO2
9[16.7 µM]	7	CNC[C@@H]1Oc2ccc(NC(=O)Nc3ccc(C(F)(F)F)cc3)cc2CC(=O)N([C@H](C)CO)C[C@H]1C
-9[16.7 µM]	-7	O=C(C[C@@H]1C=C[C@H](NC(=O)Nc2cccc(F)c2)[C@@H](CO)O1)NCC1CC1
0[16.7 µM]	-19	C[C@@H]1CCCCO[C@H](CN(C)C(=O)NC2CCCCC2)[C@@H](C)CN([C@H](C)CO)C(=O)c2cc(NC(=O)Nc3ccccc3)ccc2O1
17[16.7 µM]	-12	Cc1ccc(S(=O)(=O)N[C@@H]2CC[C@H](CCNC(=O)C3CCCCC3)O[C@@H]2CO)cc1
-10[16.7 µM]	-5	CCC(=O)N(C)C[C@@H]1Oc2ncc(-c3ccccc3F)cc2C(=O)N([C@H](C)CO)C[C@@H]1C
0[16.7 µM]	-10	CC(=O)N[C@@H]1CC[C@H](CCNC(=O)C2CCC2)O[C@H]1CO

Of the compounds above, these contain a Cl atom:
HIV Env fusion	Yeast UUG start	SMILES
-1[16.7 µM]	-8	O=C(N[C@@H]1CC[C@H](CCNS(=O)(=O)c2ccc(Cl)cc2)O[C@@H]1CO)c1cccnc1
1[16.7 µM]	-2	O=C(C[C@H]1CC[C@@H]2[C@H](COC[C@H](O)CN2C(=O)c2cccnc2)O1)NCc1ccc(Cl)cc1
3[16.7 µM]	1	Cc1noc(C)c1NC(=O)Nc1cccc2c1O[C@H](CN(C)S(=O)(=O)c1ccc(Cl)cc1)[C@H](C)CN([C@@H](C)CO)C2=O

Going on with the list.
HIV Env fusion	Yeast UUG start	SMILES
17[16.7 µM]	14	C[C@H](CO)N1C[C@H](C)[C@@H](CN(C)Cc2ccc(C(=O)O)cc2)Oc2ccc(NS(=O)(=O)c3ccc(F)cc3)cc2C1=O
3[16.7 µM]	-5	C[C@H](CO)N1C[C@H](C)[C@H](CN(C)C(=O)Nc2ccc(F)cc2)Oc2ccc(NC(=O)Nc3ccc(F)cc3)cc2CC1=O
4[16.7 µM]	17	Cc1cc(C(=O)Nc2cccc3c2O[C@@H](CN(C)S(C)(=O)=O)[C@@H](C)CN([C@H](C)CO)C3=O)n(C)n1
-2[16.7 µM]	16	COc1ccc(S(=O)(=O)N(C)C[C@H]2Oc3ccc(NC(=O)C4CCCCC4)cc3CC(=O)N([C@H](C)CO)C[C@H]2C)cc1
11[16.7 µM]	10	C[C@H]1CN([C@@H](C)CO)C(=O)Cc2cc(NC(=O)Nc3ccc4c(c3)OCO4)ccc2O[C@H]1CN(C)C(=O)Nc1ccc2c(c1)OCO2
-73[16.7 µM]	1	Cc1noc(C)c1S(=O)(=O)N(C)C[C@H]1OCCCC[C@@H](C)Oc2ccc(NS(=O)(=O)c3cccs3)cc2C(=O)N([C@H](C)CO)C[C@@H]1C
-13[16.7 µM]	-5	CNC[C@H]1Oc2cc(-c3ccc(C(=O)N(C)C)cc3)ccc2S(=O)(=O)N([C@H](C)CO)C[C@@H]1C
-6[16.7 µM]	-9	C[C@H]1CCCCO[C@@H](CN(C)C(=O)Nc2cccc3ccccc23)[C@@H](C)CN([C@@H](C)CO)C(=O)c2cc(NS(=O)(=O)c3ccc(Cl)cc3)ccc2O1
5[16.7 µM]	2	C[C@@H]1CN([C@@H](C)CO)C(=O)c2cc(-c3ccncc3)cnc2O[C@@H]1CN(C)C(=O)C1CC1
14[16.7 µM]	6	CCCC#Cc1cnc2c(c1)C(=O)N([C@H](C)CO)C[C@@H](C)[C@@H](CN(C)C(=O)c1ccccc1)O2
-63[16.7 µM]	19	Cc1noc(C)c1NC(=O)Nc1ccc2c(c1)C(=O)N([C@@H](C)CO)C[C@H](C)[C@H](CN(C)C(=O)C1CCCCC1)OCCCC[C@H](C)O2
-12[16.7 µM]	-5	CC(=O)N(C)C[C@H]1Oc2cc(-c3ccncc3)ccc2S(=O)(=O)N([C@H](C)CO)C[C@@H]1C
1[16.7 µM]	-1	O=C(CN1CCOCC1)NCC[C@H]1CC[C@@H](NC(=O)c2ccccc2F)[C@@H](CO)O1
3[16.7 µM]	-13	C[C@H]1CN([C@@H](C)CO)C(=O)c2cc(-c3cccnc3)cnc2O[C@@H]1CN(C)C(=O)Cc1cccnc1
13[16.7 µM]	50	C[C@H](CO)N1C[C@H](C)[C@@H](CN(C)Cc2ccc(Oc3ccccc3)cc2)Oc2ccc(NC(=O)C3CC3)cc2CC1=O
-26[16.7 µM]	0	O=C(N[C@@H]1CC[C@@H](CCNS(=O)(=O)c2ccc(F)cc2)O[C@@H]1CO)c1cnccn1
15[16.7 µM]	3	Cc1ccccc1S(=O)(=O)NCC[C@@H]1CC[C@H](NC(=O)C2CCCC2)[C@@H](CO)O1
-4[16.7 µM]	6	Cc1ccc(S(=O)(=O)Nc2ccc3c(c2)C(=O)N([C@H](C)CO)C[C@@H](C)[C@@H](CN(C)S(=O)(=O)c2ccccc2)O3)cc1
11[16.7 µM]	6	C[C@@H]1CN([C@H](C)CO)C(=O)c2cc(NS(=O)(=O)c3ccc(F)cc3)ccc2O[C@H]1CN(C)CC1CCCCC1
-1[16.7 µM]	6	CNC[C@H]1Oc2ncc(C#CC3(O)CCCC3)cc2C(=O)N([C@H](C)CO)C[C@H]1C
15[16.7 µM]	-1	O=S(=O)(N[C@H]1CC[C@H](CCn2cc(C3CC3)nn2)O[C@@H]1CO)c1ccc(F)cc1
12[16.7 µM]	10	O=C(C[C@@H]1C=C[C@H](NC(=O)c2ccccc2)[C@@H](CO)O1)Nc1ccc(-c2ccccc2)cc1
23[16.7 µM]	9	C[C@@H]1CCCCO[C@H](CN(C)C(=O)C2CCCCC2)[C@H](C)CN([C@@H](C)CO)C(=O)c2cc(NC(=O)NC3CCCCC3)ccc2O1
-2[16.7 µM]	13	O=C(N[C@@H]1CC[C@@H](CCNS(=O)(=O)c2cccc(Cl)c2)O[C@@H]1CO)c1ccc(F)cc1
-12[16.7 µM]	-20	CC(=O)N[C@@H]1CC[C@@H](CC(=O)NCc2ccc(Cl)cc2)O[C@@H]1CO
-5[16.7 µM]	15	COc1ccc(S(=O)(=O)Nc2ccc3c(c2)CC(=O)N([C@@H](C)CO)C[C@H](C)[C@@H](CN(C)S(=O)(=O)c2cn(C)cn2)O3)cc1
7[16.7 µM]	11	C[C@@H]1CN([C@@H](C)CO)C(=O)c2cc(NC(=O)Nc3ccccc3)ccc2O[C@H]1CN(C)C(=O)Nc1ccc(C(F)(F)F)cc1
12[16.7 µM]	-8	Cc1ccc(S(=O)(=O)N[C@@H]2C=C[C@H](CC(=O)O)O[C@H]2CO)cc1
17[16.7 µM]	0	C[C@H](CO)N1C[C@H](C)[C@H](CN(C)Cc2cccnc2)Oc2cc(-c3ccccc3)ccc2S1(=O)=O
60*[16.7 µM]	-10	COC(=O)C[C@@H]1C[C@H]2c3cc(NS(=O)(=O)c4cccc(OC)c4)ccc3O[C@H]2[C@@H](CO)O1
-20[16.7 µM]	-6	C[C@@H]1CN([C@H](C)CO)C(=O)c2cccc(NS(=O)(=O)c3ccccc3)c2O[C@H]1CN(C)Cc1ccc(Oc2ccccc2)cc1
-19[16.7 µM]	1	C[C@@H]1CN([C@@H](C)CO)S(=O)(=O)c2ccc(C#CC3CC3)cc2O[C@H]1CN(C)C(=O)c1ccccn1
-10[16.7 µM]	23	CCCC#Cc1ccc2c(c1)O[C@@H](CN(C)C(=O)CN(C)C)[C@@H](C)CN([C@H](C)CO)S2(=O)=O
2[16.7 µM]	-7	C[C@@H]1CN([C@H](C)CO)C(=O)c2cc(-c3cccc(C#N)c3)cnc2O[C@@H]1CN(C)Cc1ccncc1
-2[16.7 µM]	-1	CCCNC(=O)N1C[C@H](C)[C@H](OC)CN(C)C(=O)c2cc(NS(=O)(=O)CC)ccc2OC[C@@H]1C
20[16.7 µM]	2	C[C@@H]1CN([C@H](C)CO)C(=O)c2cc(Br)cnc2O[C@@H]1CN(C)CC1CCOCC1
-4[16.7 µM]	4	C[C@H](CO)N1C[C@H](C)[C@@H](CN(C)Cc2ccccc2)Oc2ccc(NS(=O)(=O)c3ccc(F)cc3)cc2C1=O
1[16.7 µM]	15	O=C(C[C@H]1C=C[C@H](NC(=O)C2CC2)[C@@H](CO)O1)NCCCN1CCOCC1
69*[16.7 µM]	-22	Cc1ccc(S(=O)(=O)N(C)C[C@H]2Oc3cc(-c4cccc(F)c4)ccc3S(=O)(=O)N([C@@H](C)CO)C[C@H]2C)cc1
-7[16.7 µM]	-4	O=C(Cc1ccccn1)N[C@H]1CC[C@H](CCNS(=O)(=O)c2cccc(F)c2)O[C@H]1CO
22[16.7 µM]	-36	N#C[C@@H]1[C@H](c2ccc(C#Cc3ccccc3F)cc2)[C@@H](CO)N1C(=O)C1CC1
-13[16.7 µM]	30	C[C@H](O)C#Cc1ccc2c(c1)O[C@H](CN(C)C(=O)C1CC1)[C@H](C)CN([C@H](C)CO)S2(=O)=O
2[16.7 µM]	-8	CCNC(=O)Nc1ccc2c(c1)C(=O)N(C)[C@@H]1CC[C@@H](CC(=O)NCCOC)O[C@H]1CO2

Single values from the entries so far.
Yeast UUG start, C[C@@H]1CN([C@H](C)CO)C(=O)c2cc(-c3cccc(C#N)c3)cnc2O[C@@H]1CN(C)Cc1ccncc1 : -7
Yeast UUG start, C[C@@H]1CN([C@H](C)CO)C(=O)c2cc(Br)cnc2O[C@@H]1CN(C)CC1CCOCC1 : 2
Yeast UUG start, CCCC#Cc1ccc2c(c1)O[C@@H](CN(C)C(=O)CN(C)C)[C@@H](C)CN([C@H](C)CO)S2(=O)=O : 23
Yeast UUG start, O=C(C[C@H]1C=C[C@H](NC(=O)C2CC2)[C@@H](CO)O1)NCCCN1CCOCC1 : 15
HIV Env fusion, CCCNC(=O)N1C[C@H](C)[C@H](OC)CN(C)C(=O)c2cc(NS(=O)(=O)CC)ccc2OC[C@@H]1C : -2[16.7 µM]

Bioassay records from PubChem.
